# D2 ag – activates the human D2 dopamine receptor | P14416 | DiscoveRx PathHunter D2 beta-arrestin, luminescence, 90 min; 100% = 57 uM dopamine signal | activation, % (no concentration beside the values) | 360,000 compounds, 0.084% hits | AID 624465; in the data active = activation above about 40%; inconclusive = about 15% to 40%; inactive = below about 15%; further: compound concentration not given in the record; the text of the record calls up to 30% inactive
#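 DiscoveRx PathHunter D2 beta-arrestin cells (2,100/well) attached overnight, then compound-stimulated 90 min at 37 C in HBSS/10 mM HEPES/0.1% Tween-20 buffer; beta-galactosidase complementation read by luminescence after 1 h at ambient temperature. Dopamine 57 uM final (EC100) as control.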
# TRPV1 potentiator – human TRPV1 potentiation; TRPV1-expressing cells, Fluo-8 calcium influx, capsaicin EC20 potentiation; host cell line not named in the record; control for the full effect not named in the record; potentiation, % at 8.33 µM; 320,000 compounds, 0.02% hits; AID 540277; active means potentiation above 80%; inconclusive means 30% to 80%; inactive means below 30%; further: 0% is about no effect
# Target sequence (Q8NER1 whole entry, looked up): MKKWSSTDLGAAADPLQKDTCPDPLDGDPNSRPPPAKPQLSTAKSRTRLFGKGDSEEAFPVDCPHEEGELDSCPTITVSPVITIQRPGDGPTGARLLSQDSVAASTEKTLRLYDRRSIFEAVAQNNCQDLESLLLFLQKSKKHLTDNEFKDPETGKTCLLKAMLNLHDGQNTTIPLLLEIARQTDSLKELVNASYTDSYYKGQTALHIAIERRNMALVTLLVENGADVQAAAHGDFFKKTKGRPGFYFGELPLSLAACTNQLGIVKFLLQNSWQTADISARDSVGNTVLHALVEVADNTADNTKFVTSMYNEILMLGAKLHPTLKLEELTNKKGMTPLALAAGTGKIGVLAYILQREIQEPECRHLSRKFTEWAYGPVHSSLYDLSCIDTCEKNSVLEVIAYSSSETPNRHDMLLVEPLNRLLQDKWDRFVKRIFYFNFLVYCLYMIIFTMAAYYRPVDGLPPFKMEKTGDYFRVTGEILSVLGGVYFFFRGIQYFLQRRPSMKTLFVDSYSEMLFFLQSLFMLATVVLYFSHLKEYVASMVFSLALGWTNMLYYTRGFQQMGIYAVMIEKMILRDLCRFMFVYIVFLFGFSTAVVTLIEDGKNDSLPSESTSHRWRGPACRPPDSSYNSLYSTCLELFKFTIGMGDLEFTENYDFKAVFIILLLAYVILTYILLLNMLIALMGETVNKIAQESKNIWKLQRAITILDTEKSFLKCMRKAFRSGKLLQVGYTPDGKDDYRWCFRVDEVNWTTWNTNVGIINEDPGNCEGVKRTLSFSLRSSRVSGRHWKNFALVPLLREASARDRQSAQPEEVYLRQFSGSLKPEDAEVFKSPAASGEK
#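 Fluo-8 calcium influx in TRPV1-expressing cells, kinetic read (ex 480/em 520 nm). Compound added and read 3 min for agonist activity, followed by capsaicin at EC20 final and 2 min further read for enhancement.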
# D2 potentiator – potentiates the human D2 dopamine receptor allosterically | potentiation, % (no concentration beside the values) | DiscoveRx D2 beta-arrestin cells, luminescence, 90 min; 100% = 57 uM dopamine signal | 360,000 compounds, 0.23% hits | AID 624464; active = potentiation of 50% or more; inconclusive = 30% to 50%; inactive = 30% or less;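 further: compound concentration not given in the record; tested on top of an EC20 dose of dopamine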
#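 D2 cells co-treated with compound plus 50 nM dopamine (EC20) for 90 min at 37 deg C to detect potentiation. Beta-arrestin recruitment was read as enzyme-fragment luminescence after 1 h at ambient temperature. Full response was set by 57 uM dopamine.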
# Six1-Eya2 blk – blocks human Six1 binding to Eya2. Q15475+O00167. AlphaScreen GST-Six1/His-Eya2 binding, biochemical; hits give low values; control for the full effect not named in the record. activity change, % (test concentration not listed). 360,000 compounds, 0.56% hits; in the data active = activity change below about -65%; inconclusive = about -30% to -65%; inactive = above about -30%; further: on the % scale 0 is the no-effect control and ±100 the full control effect
#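 Homogeneous AlphaScreen proximity assay pairing GST-Six1 with His-tagged Eya2 (added as 5X mix: 250 nM and 500 nM) in 50 mM Tris pH 8.0, 300 mM NaCl, 1 mM TCEP. Glutathione donor and nickel acceptor beads; 1 h, 37 °C, dark.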
# CtBP-E1A inh – CtBP/E1A binding inhibition; AlphaScreen GST-E1A/His-CtBP binding, 1536-well; hits give low values; control for the full effect not named in the record; activity change, % (no concentration beside the values); 340,000 compounds, 0.49% hits; AID 651724; in the data active means activity change below about -65%; inconclusive means about -30% to -65%; inactive means above about -30%; further: on the % scale 0 is the no-effect control and ±100 the full control effect
#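 Steps: dispense buffer (Tris pH 8.0, NaCl 300 mM, TCEP 1 mM, BSA, Tween 20); add 5X protein mix (GST-E1A, His-CtBP, 125 nM each); pin 23 nL compound; 2 h at 37 °C, dark; add 5X beads (50 ug/mL); 1 h; read.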
# PINK1 expr mod – modulators of PINK1 expression; PINK1 immunofluorescence, high-content cytometry, 24 h; Potency, µM (titrated, usually from 76.6 µM), for the others: at the highest dose activation (PINK1 increase), hits mostly activators; 410,000 compounds, 0.2% hits; AID 624263; active = well fitted activation curve with a large enough effect; inconclusive = small, poorly fitted or top-dose-only effect; inactive = flat fitted curve, though single readings scatter; cell line not stated here;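 further: potency means the concentration at half of the fitted maximal effect; % of control where 0% means no effect; nearly all actives have a fitted effect of over 65% in size; a mitochondrial uncoupler was the plate control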
#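 PINK1 protein level read as immunofluorescence by microplate cytometer in a fixed, stained stable cell line after 24 h exposure to five compound concentrations, with CCCP as control.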
# Sfp inh – inhibitors of Bacillus subtilis Sfp phosphopantetheinyl transferase | Potency, µM, for the others: max response, negative = inhibition, usual class: inhibitors | 310,000 compounds, 3.5% hits | Biochemical Sfp PPTase activity, qHTS; active means well fitted inhibition curve with a large enough effect; inconclusive means small, poorly fitted or top-dose-only effect, or another doubt; inactive means no such curve, though single readings can be large or run the other way;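 further: the enzyme is Sfp with the accession as filed and its product quenches rhodamine fluorescence; potency means the concentration at half of the fitted maximal effect; 0% = enzyme reaction without inhibitor and -100% = no enzyme wells; top concentration of the series not given in the record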
#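 Compounds were incubated with enzyme (final 15 nM) for 15 min at room temperature before substrate addition started the reaction. Fluorescence at 525 nm excitation, 598 nm emission was recorded immediately and after 30 minutes.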
# * hit, by the source's call; u = inconclusive; x = no result given; & = joins results of further samples; [ ] = another dose, or the depositor's remark.
SMILES,D2 ag,TRPV1 potentiator,D2 potentiator,Six1-Eya2 blk,CtBP-E1A inh,PINK1 expr mod,Sfp inh
CN(C(=O)c1cccc(NC(=O)Cc2ccc(NC(=O)C3CCN(C(=O)c4ccccc4)CC3)cc2)c1)C1CCCCC1,-2.3,x,-0.5,0.6,-25.9,12.3%,x
Cc1ccc(N(CC(=O)N/N=C/c2cccs2)S(C)(=O)=O)cc1Cl,-1.1,2.9,0.2,-0.5,5.7,0.5%,12.1%
COc1ccc(/C=N/OC(=O)Nc2ccccc2OC)cc1,0.5,1.0,-11.8,-2.3,7.6,4.4%,-1.0%
COc1ccc(-c2cc(-c3c(O)c(OC)c4occc4c3OC)[nH]n2)cc1OC,3.5,-6.3,-27.1,u,11.3,-6.0%[38.3 µM],-14.6%
COc1ccc(S(=O)(=O)N2CCCCCC2)cc1N,3.0,-2.2,-0.5,-13.2,0.0,0.1%,17.9%
COc1ccc(CN2CCNC(=O)C2CC(=O)NCCSc2nccn2C)cc1OC (stereo not drawn),2.3,u,-3.4,-1.2,x,0.9%,-14.1%
Cc1ccc(C)c(C(=O)CSc2nc3ccccc3c(=O)[nH]2)c1,3.5,6.0,-9.1,0.5,x,5.3%,12.7%
O=C(N/N=C/C=C/c1ccco1)c1ccncc1,0.2,-26.6,-6.3,-8.4,-0.2,0.5%,56.2µM*
C/C(Cn1nnc2ccccc21)=N\NC(=O)c1cccc(Br)c1,-5.4,-10.5,-7.7,-1.5,4.6,-0.7%,10.5%
O=C(NCCN1CCC(n2c(=O)[nH]c3ccccc32)CC1)c1c(F)cccc1F,x,x,x,8.3,2.2,0.1%,x
CCCOc1ccc(/C=N/Nc2ccc(C(=O)O)cc2)c(OCCC)c1,3.2,0.3,14.8,-9.4,-0.3,9.0%,-27.5%
CCN(CC(=O)N1CCOCC1)S(=O)(=O)c1ccc(C)cc1,-1.1,4.5,-0.6,14.0,10.0,2.5%,15.9%
Cc1c(Cl)cccc1NC(=O)CNC(=O)Cc1n[nH]c(=O)c2ccccc12,-2.3,x,-34.2,1.6,-1.4,4.6%,x
COc1cccc(N2CCN(CC(=O)Nc3ccc(S(=O)(=O)N4CCCCCC4)cc3)CC2)c1,-1.5,29.2,14.6,-17.0,3.6,2.0%,x
Cc1ccc(C)c(OCCn2cc(/C=C(\C#N)C(=O)NCc3ccco3)c3ccccc32)c1,0.5,11.7,-2.3,19.8,7.7,6.7%,15.3%
Cc1ccc(SCC(=O)N2CC(C)OC(C)C2)cc1 (stereo not drawn),-0.5,-7.0,2.6,3.0,2.0,-2.7%,10.3%
CCC(C)c1c(O)nc(SCC(=O)c2ccccc2)[nH]c1=O (stereo not drawn),-0.3,1.1,-5.5,-3.0,3.0,-1.2%[38.3 µM],-0.8%
CCOC(=O)CSc1nc2c(sc(=S)n2-c2ccccc2)c(=O)n1-c1ccc(OC)cc1OC,-1.0,3.6,-4.3,-24.9,-15.2,0.9%,31.6µM*
CSc1ccc(Cn2nnc(C(=O)NCc3ccccc3)c2N)cc1,-6.6,0.4,0.5,-0.9,1.4,7.0%,6.0%
Cc1ccc(C)c(N2CC(C(=O)O)CC2=O)c1 (stereo not drawn),1.7,-7.1,4.9,7.1,-11.0,0.1%,2.1%
C/C(=N\NC(=O)c1ccc(C)cc1C)c1ccc(-n2ccnc2)cc1,-0.1,-1.4,3.5,1.7,-1.3,13.2%,3.5%
COc1ccc(CCNCC(=O)Nc2ccc(OC(F)F)cc2)cc1,-0.5,7.4,-2.5,-1.7,-15.7,5.7%,6.7%
Cc1ccc(NC(=O)CCNC(=O)c2ccccc2Cl)nc1,-2.7,1.5,-3.6,-1.1,3.9,0.7%,10.5%
N/C(=N\OC(=O)CCc1ccccc1)c1ccc(Br)cc1,0.1,6.6,-4.3,55.7,74.1,1.8%[38.3 µM],4.2%
CN1CCN(Cc2nc(-c3cccs3)no2)CC1c1ccccc1 (stereo not drawn),-3.1,0.2,-6.7,-1.5,-19.6,2.2%,-1.4%

# 2 records drawn at random from the list so far:
SMILES,D2 ag,TRPV1 potentiator,D2 potentiator,Six1-Eya2 blk,CtBP-E1A inh,PINK1 expr mod,Sfp inh
C/C(Cn1nnc2ccccc21)=N\NC(=O)c1cccc(Br)c1,-5.4,-10.5,-7.7,-1.5,4.6,-0.7%,10.5%
N/C(=N\OC(=O)CCc1ccccc1)c1ccc(Br)cc1,0.1,6.6,-4.3,55.7,74.1,1.8%[38.3 µM],4.2%

# The list goes on.
SMILES,D2 ag,TRPV1 potentiator,D2 potentiator,Six1-Eya2 blk,CtBP-E1A inh,PINK1 expr mod,Sfp inh
CCC(=O)c1ccc(O)cc1,8.3,2.9,-26.5,-0.4,4.2,0.6%,-8.8%&-6.3%
Cc1[nH]n(-c2ccc([N+](=O)[O-])cc2)c(=O)c1C=NCCc1c(C)[nH]c2ccccc12,-0.6,-13.9,-16.7,-18.7,-14.8,-0.7%,79.4µM*
Cc1ccccc1-n1c(SCc2cc(=O)n3ccccc3n2)nc2[nH]ncc2c1=O,2.8,-2.8,10.4,-3.2,3.2,0.2%,17.9%
COc1cccc(-c2ccc(=O)n(CC(=O)Nc3ccc(C(=O)N4CCCC4)cc3)n2)c1,-3.0,21.0,u,10.3,23.4,-1.9%,4.7%
Cn1nc(C(F)(F)F)c(-c2ccc(F)cc2)c1NC(=O)c1cccnc1,-0.9,5.0,0.2,-5.7,x,0.8%,12.9%
COC(=O)c1ccc(/C=C(\C#N)c2nc3ccccc3s2)cc1,-1.2,4.9,-11.3,-0.3,1.9,2.3%,-1.1%
COC(=O)CN1C(=O)CC(C)(C)S(=O)c2ccccc21 (stereo not drawn),-1.1,0.4,3.8,2.2,7.2,4.0%,37.3%[activator]
Cc1nnc2ccc(-c3cccc(NC(=O)Cc4cccs4)c3)nn12,2.8,19.6,-6.6,-7.3,-3.9,2.8%,2.2%
CCOc1ccccc1NC(=O)CN1C(=O)COc2ccccc21,-2.6,-12.9,1.3,4.4,x,-1.3%,0.3%
CCCn1cnnc1CNC(=O)C1CCC(=O)N(CCCc2ccccc2)C1 (stereo not drawn),0.6,6.7,-5.8,5.8,8.2,2.1%,7.2%
COc1ccc(N2CCN(S(=O)(=O)CCNC(=O)c3ccco3)CC2)cc1,1.0,0.7,13.0,8.3,-20.5,1.0%,x
CC(=O)c1cccc(NC(=O)c2ccc(N(C)S(C)(=O)=O)cc2)c1,1.6,19.6,-21.7,10.8,-2.1,0.2%,5.0%
O=c1c2ccccc2nc(-c2cccs2)n1-c1cccc2ccccc12,-3.3,9.6,-4.6,-8.0,-2.4,0.7%,-12.4%
C=CCOn1c(=O)c(-c2ccc(Br)cc2)[n+]([O-])c2ccccc21,-1.6,-8.5,-4.8,5.4,-10.0,10.9%,16.5%
c1ccc(NC2=NCCN2CC2CCCCCC2)cc1,0.5,8.2,-15.7,3.2,8.7,0.2%,x
C[C@@H]1CN([C@@H](C)CO)S(=O)(=O)c2ccc(Br)cc2O[C@H]1CN(C)C(=O)c1cccc(F)c1,-4.2,x,14.8,5.0,6.9,3.4%,x
Cc1ccc([C@H]2N[C@]3(CCCN(Cc4ccco4)C3=O)[C@H]3C(=O)N(Cc4ccccc4)C(=O)[C@@H]23)cc1,-8.3,x,-2.1,-4.1,-2.4,0.6%,x
CCn1c(CC(=O)Nc2ccccc2)nnc1SCC(=O)N1CCOCC1,-0.8,-3.0,5.3,8.8,1.9,4.9%,11.7%
COc1ccc(C(=O)Nc2cc3c4c(c2)CC(=O)N4CCC3)cc1,-3.0,-15.0,-13.5,-9.7,0.7,5.2%,x
c1ccc(-n2nnnc2OCCOc2nnnn2-c2ccccc2)cc1,-0.8,22.4,-0.3,4.5,8.6,-1.4%[38.3 µM],21.8%
CC(C)c1ccc(NC(=O)C2CCN(S(=O)(=O)c3ccc4c(c3)NC(=O)CO4)CC2)cc1,1.3,-21.0,-13.9,0.3,x,0.3%,15.6%
NC1=NC(=O)C2(COC(c3ccccc3Cl)OC2)S1 (stereo not drawn),0.2,-7.2,-4.1,5.0,1.4,u,6.4%
COc1cc(C(=O)NCc2nnc(SCC(=O)c3ccc(Cl)cc3)o2)cc(OC)c1OC,-3.6,1.5,-9.1,-7.8,x,1.7%,3.9%
Cc1ccc(C)c(SCC(=O)NC2CCS(=O)(=O)C2)c1 (stereo not drawn),7.7,-4.2,-21.7,-8.2,6.6,0.2%,x
Cc1ccc(CSc2nnc(-c3cccs3)n2C)cc1,1.0,4.9,-3.1,-1.0,5.5,x,16.1%
CC1(C)SCC2C(=O)N3C(CSC3(C)C)C(=O)N21 (stereo not drawn),-0.5,x,2.5,1.1,1.5,-0.6%[38.3 µM],20.9%
CC(=O)Nc1ccc(NC(=O)c2ccccc2S(=O)(=O)c2ccc([N+](=O)[O-])cc2)cc1,-2.6,3.1,4.9,-3.5,0.7,-2.1%,1.1%

# 11 compounds from above, sorted by molar mass, high to low:
SMILES,D2 ag,TRPV1 potentiator,D2 potentiator,Six1-Eya2 blk,CtBP-E1A inh,PINK1 expr mod,Sfp inh
COc1cccc(N2CCN(CC(=O)Nc3ccc(S(=O)(=O)N4CCCCCC4)cc3)CC2)c1,-1.5,29.2,14.6,-17.0,3.6,2.0%,x
COc1cc(C(=O)NCc2nnc(SCC(=O)c3ccc(Cl)cc3)o2)cc(OC)c1OC,-3.6,1.5,-9.1,-7.8,x,1.7%,3.9%
Cc1[nH]n(-c2ccc([N+](=O)[O-])cc2)c(=O)c1C=NCCc1c(C)[nH]c2ccccc12,-0.6,-13.9,-16.7,-18.7,-14.8,-0.7%,79.4µM*
O=C(NCCN1CCC(n2c(=O)[nH]c3ccccc32)CC1)c1c(F)cccc1F,x,x,x,8.3,2.2,0.1%,x
COc1ccc(-c2cc(-c3c(O)c(OC)c4occc4c3OC)[nH]n2)cc1OC,3.5,-6.3,-27.1,u,11.3,-6.0%[38.3 µM],-14.6%
CCCOc1ccc(/C=N/Nc2ccc(C(=O)O)cc2)c(OCCC)c1,3.2,0.3,14.8,-9.4,-0.3,9.0%,-27.5%
Cc1nnc2ccc(-c3cccc(NC(=O)Cc4cccs4)c3)nn12,2.8,19.6,-6.6,-7.3,-3.9,2.8%,2.2%
CN1CCN(Cc2nc(-c3cccs3)no2)CC1c1ccccc1 (stereo not drawn),-3.1,0.2,-6.7,-1.5,-19.6,2.2%,-1.4%
Cc1ccc(C)c(C(=O)CSc2nc3ccccc3c(=O)[nH]2)c1,3.5,6.0,-9.1,0.5,x,5.3%,12.7%
Cc1ccc(CSc2nnc(-c3cccs3)n2C)cc1,1.0,4.9,-3.1,-1.0,5.5,x,16.1%
NC1=NC(=O)C2(COC(c3ccccc3Cl)OC2)S1 (stereo not drawn),0.2,-7.2,-4.1,5.0,1.4,u,6.4%

# Screens (PubChem BioAssay)
